Screening data as filed in PubChem BioAssay.
LT uptake inh: inhibitors of anthrax lethal toxin internalization; Cells, anthrax lethal toxin internalization, FRET ratio (460/530); Potency, µM (top dose mostly 40 µM), for inactives: at the highest dose activity change, negative = inhibition, hits mostly inhibitors; 70,000 compounds, 0.67% hits; AID 912; active = well fitted falling ratio curve with the 530 nm signal flat; inconclusive = other ratio curves, or a change in one channel alone; inactive = flat curves in the ratio and both channels; the % refers to the ratio; note: % is set by controls: 0 for no effect and ±100 for the full control effect; nearly all actives have a fitted effect of over 50% in size; tested in ME-180 cells; beta-lactamase reporter
SmPrx2 inh: Schistosoma mansoni Prx2 inhibition; S. mansoni Prx2 activity coupled to TGR/GSH (TGR is thioredoxin glutathione reductase), NADPH fluorescence loss, qHTS; some inactives read as strong as hits; Potency, µM; 65,000 compounds, 0.07% hits; active means full or partial inhibition curve with a strong effect at the top dose; inconclusive means weaker partial or single-point curve; inactive means no accepted curve; note: series up to 57 µM; many of its hits are not listed in these tables
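Activity is read as the drop in NADPH fluorescence (365/450 nm), recorded every 30 sec for 8 min after H2O2 addition. Prx2 is coupled to TGR-driven NADPH oxidation through glutathione, in phosphate buffer pH 7.4.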
Starred values were filed as active, the others as inactive; ? = inconclusive; . = not tested or not shown; & = joins results of further samples; [ ] = dose if it differs, or a comment. Potency is the fitted concentration of half-maximal effect. An excerpt; count on the stated rates, not on these rows.

SMILES	LT uptake inh	SmPrx2 inh
O=C(CSc1nc2c(cnn2-c2ccccc2)c(=O)[nH]1)N1CCOCC1	5%	>57
CC(C)NC(=O)c1n[nH]c(=O)c2ccccc12	-25%	>57
COC(=O)c1cc(C(=O)OC)cc(N2C(=O)CC(Sc3nc(C)cc(C)n3)C2=O)c1 (stereo not given)	10%	>57
COc1ccccc1N1CCN(C(=O)c2ccc(Br)s2)CC1	-28%	>57
Cc1cc(N)c2ccccc2[n+]1CCCCCCCCCC[n+]1c(C)cc(N)c2ccccc21	?	>57&>57&>57
O=C(CSCC(=O)OCn1nnc2ccccc2c1=O)Nc1ccc(Cl)cc1	-1%	>57
COC(=O)c1ccc(C2NC(=O)NC(C)=C2C(=O)N(C)C)cc1 (stereo not given)	-5%	>57
O=C1c2oc3ccc(Br)cc3c(=O)c2C(c2cccnc2)N1Cc1ccco1 (stereo not given)	?	>57
CCOC(=O)C1=C(C)N=C(/N=C/N(C)C)SC1c1ccccc1 (stereo not given)	-11%	>57
COc1ccc(Nc2cc(C)nc3nc(C)nn23)c(OC)c1	1%	>57
COc1ccc(CNC2=CC(=O)CC(C)(C)C2)cc1	-7%	.
CC(=O)c1c(C)[nH]c(C(=O)NCCc2ccccc2)c1C	1%	?
CC(C)(C)C(=O)[C@H]([C@@H](c1ccccc1)N1CCOCC1)N1CCOCC1	3%[8 µM]	>57
COc1ccc(C(CCc2ccc(C)o2)NC(=O)Nc2ccc(OC)cc2OC)cc1 (stereo not given)	9%	>57
COC(=O)c1ccc(C(C(=O)NCc2ccccc2)N(Cc2ccco2)C(=O)c2cnccn2)cc1 (stereo not given)	?	>57
COc1cccc(N2CCN(C(=O)c3ccc4nc(N5CCCCC5)sc4c3)CC2)c1	?	>57
CCOC(=O)c1ccc(NC(=O)c2nn(CC)cc2Br)cc1	2%	>57
CC1(C)CC(=O)c2cnc(NC(=O)CCc3ccccc3)nc2C1	-1%	>57
CC(=O)Oc1cccc(/C=c2\sc3nc(-c4ccco4)nn3c2=O)c1	-6%	>57
COc1ccc(-c2nnc(SC(C)C#N)o2)cc1 (stereo not given)	8%	>57
Cc1ccccc1N(CC(=O)NCCSCc1ccco1)S(C)(=O)=O	-5%	.
CCCc1nc(SCc2cccnc2)c2c(=O)n(C)c(=O)n(C)c2n1	-5%	.
COc1ccc2nc(NC(=O)CSc3nnnn3C3CCCCC3)sc2c1	?	>57
c1ccc(-n2c(SCc3nc(-c4cccs4)no3)nnc2-c2ccco2)cc1	-18%	>57
COC(=O)c1cccc(N2C(=O)C(Cl)=C(N3CCOCC3)C2=O)c1	23%	>57

Gathered by group, the entries above containing bromine (3)
SMILES	LT uptake inh	SmPrx2 inh
COc1ccccc1N1CCN(C(=O)c2ccc(Br)s2)CC1	-28%	>57
O=C1c2oc3ccc(Br)cc3c(=O)c2C(c2cccnc2)N1Cc1ccco1 (stereo not given)	?	>57
CCOC(=O)c1ccc(NC(=O)c2nn(CC)cc2Br)cc1	2%	>57

Remaining list, next part
SMILES	LT uptake inh	SmPrx2 inh
CCn1c(SCC(N)=O)nnc1-c1ccco1	-12%	>57
Cc1cc(C(=O)Nn2cnnc2)cs1	8%	>57
Cc1nc(N2CCOCC2)c2cc(-c3ccccc3)sc2n1	-26%	>57
CC1CCc2nn(CC(=O)N3CCCCCC3)cc2C1 (stereo not given)	4%	>57
c1ccc(-c2csc3nnc(SCc4ccc5c(c4)OCO5)n23)cc1	21%	>57
Cn1cc(-c2nc3cnc(OCc4ccccc4)nc3n(CCC#N)c2=O)c2ccccc21	?	>57
Cc1ccc(Cl)cc1N1CCN(Cc2nnnn2Cc2ccco2)CC1	?	>57
CN(C)C(=O)c1ccc(-c2nc(-n3ccnc3)c3ccccc3n2)cc1	-9%	>57
CCN(CC)c1ccc(-c2nc3cnccc3n2C)cc1	-15%	>57
O=S(=O)(c1ccc(F)cc1)c1nc(-c2ccc(F)cc2)oc1NCCN1CCOCC1	4%	>57
Cc1ccc(S(=O)(=O)N(C)CC(=O)N2CCN(C(=O)c3ccco3)CC2)cc1	0%	>57
COCCn1c(=O)[nH]c2cc(C(=O)NCCN3CCN(c4ccccc4)CC3)ccc2c1=O	-6%	>57
C[C@@]12C[C@H](O)[C@@H]3[C@H](CCC4=CC(=O)CC[C@]43C)[C@H]1CC[C@@H]2c1csc(N)n1	-17%[8 µM]	>57
N[C@@H](Cc1ncccn1)C(=O)O	1%[8 µM]	>57
COCCNc1cc(C)nc2c3c(C)cc(C)nc3nn12	.	>57
Cc1ccc(P(=S)(c2ccc(C)o2)N2CCOCC2)o1	13%	>57
Cc1ccc2c(c1)N(CCC(=O)NCc1ccco1)C(=O)CO2	-3%	>57
O=C(CCc1nc(-c2ccccc2F)no1)NCCN1CCOCC1	-3%	>57
CCN1C(=O)[C@H]2[C@H]3[C@H](O)[C@H](O)C/C(=N/O[C@@H]4O[C@@H](COC(C)=O)[C@@H](OC(C)=O)[C@@H](OC(C)=O)[C@H]4OC(C)=O)[C@@H]3CC[C@@H]2C1=O	-9%[8 µM]	.
CC(=O)c1c(C)cc(C)c(CSc2nnc(-c3ccco3)o2)c1C	?	>57
Cc1cc(C)n(Cc2ccc(C(=O)O)o2)n1	.	>57
Cc1cc(C)n(Cc2ccc(C(=O)NCc3ccco3)o2)n1	-11%	>57
C=CCc1c(C)nc(SC(C)C)[nH]c1=O	-2%	>57
O=C(CN1CCN(Cc2ccccc2)CC1)NC(=O)NCc1ccco1	-5%	>57
CCc1cc(=O)oc2cc3oc(C)c(C)c3cc12	-9%	>57

Continuation:
SMILES	LT uptake inh	SmPrx2 inh
O=C(CN1CCOCC1)OCCCc1ccccc1	4%	>57
CCC(CO)N=CC1=C(O)C(C(=O)c2ccccc2)CCC1=O (stereo not given)	12%	.
Cn1ccnc1C(O)c1ccco1 (stereo not given)	8%	>57
CCOC(=O)CC(=O)CSc1ncc(C(=O)OCC)c(N)n1	17%	>57
C=CC[C@@H]1C=C[C@H](O/N=C(\C)CCN2CCc3nc(-c4ccccc4)c(-c4ccccc4)cc3C2)[C@H](CO)O1	0%[8 µM]	.
COC(=O)c1ccccc1NC(=O)c1c(O)c2cccc3c2n(c1=O)CCC3	14%	>57
Nc1nc(-c2ccccc2)c(CC(=O)O)s1	2%[8 µM]	>57
Cc1ccc(N2C(=O)[C@@H]3[C@H](C2=O)C2c4ccccc4C=CN2[C@@H]3C(=O)c2ccco2)cc1 (stereo not given in full)	.	>57
COC(=O)c1c(NC(=O)CN2CCN(Cc3ccc4c(c3)OCO4)CC2)sc(C)c1C	-5%	>57
Cc1cc(NC(=O)C(C)C)ncc1NC(=O)Cc1ccccc1	-9%	>57
CS(=O)(=O)NCc1ccc(C(=O)NCc2ccccc2)cc1	?	>57
COC(=O)CN1CCN(C(=O)c2ccc(F)cc2)c2ccccc2C1	2%	>57
COc1ccccc1CC(=O)N1CCCC1	9%	>57
C/C(O)=C(/N=O)C(=O)Nc1ccccc1	-7%	>57
O=S(=O)(Nc1ccccc1N1CCOCC1)c1ccc(Cl)s1	-30%	>57
OC(COCc1ccc(Cl)cc1)CN1CC=C(c2ccccc2)CC1 (stereo not given)	-19%	>57
CCCOc1ccccc1NC(=O)c1c(-c2ccccc2)noc1C	?	>57
COc1ccccc1NC(=O)CN1CCN(C2c3ccccc3-c3ccccc32)CC1	?	>57
COc1ccc(-c2cc(C(F)F)n3ncc(C(=O)N4CCN(C(=O)c5ccco5)CC4)c3n2)cc1	-11%	>57
CCOc1ccc(-c2cc(C(=O)N3CCC4(CC3)OCCO4)c3ccccc3n2)cc1	-5%	>57
Nc1c(C(=O)NCc2ccco2)nnn1-c1ccccc1	3%	>57
CCC(C)Sc1nc2c(c(=O)[nH]c(=O)n2C)n1Cc1ccc(Cl)cc1 (stereo not given)	-17%	>57
CC(=O)c1ccc(OCCCC(=O)NCC(c2ccco2)N(C)C)cc1 (stereo not given)	9%	>57
Cc1nnc(NC(=O)C2CCCO2)s1 (stereo not given)	?	>57
COc1ccc(OC)c(C(=O)CSc2nc3c(c(=O)n(C)c(=O)n3C)n2C(C)C)c1	-1%	>57

Some of the entries so far, in CSV form.
SMILES,LT uptake inh,SmPrx2 inh
Cc1nnc(NC(=O)C2CCCO2)s1 (stereo not given),?,>57
COc1ccc(OC)c(C(=O)CSc2nc3c(c(=O)n(C)c(=O)n3C)n2C(C)C)c1,-1%,>57

2 compounds drawn at random from those above:
SMILES	LT uptake inh	SmPrx2 inh
COc1ccc(-c2cc(C(F)F)n3ncc(C(=O)N4CCN(C(=O)c5ccco5)CC4)c3n2)cc1	-11%	>57
COC(=O)c1c(NC(=O)CN2CCN(Cc3ccc4c(c3)OCO4)CC2)sc(C)c1C	-5%	>57

Other compounds follow.
SMILES	LT uptake inh	SmPrx2 inh
COc1ccc(N=CC2=C(O)CCCC2=O)cc1	18%	.
CCOc1ccccc1-n1c(CN2CCN(C(=O)c3ccco3)CC2)nc2ccccc2c1=O	6%	>57
COC(=O)C1(S(=O)(=O)c2cc(Br)cc3c2N(C(C)=O)CC3)CC1	-26%	>57
c1ccc2c(-n3ccnc3)nc(-c3ccoc3)nc2c1	?	>57
Nn1c(SCc2cccc(C(F)(F)F)c2)nnc1-c1ccco1	-2%	>57
COc1ccc(CCn2nnnc2C(C(C)C)N2CCC(C(N)=O)CC2)cc1OC (stereo not given)	-4%	>57
O=C(CSc1nccn1Cc1ccccc1)Nc1nccs1	-6%	>57
CCCc1c(C(=O)OCC)[nH]c2c1C(=O)CCC2	?	>57
CSCCC(NS(=O)(=O)c1cccs1)C(=O)NCc1cccs1 (stereo not given)	-7%	>57
O=C(CSc1nnnn1C1CCCC1)c1ccc2c(c1)OCCO2	9%	>57
CCCCc1ccc(-c2nc(N)n[nH]2)cc1	-21%	>57
CCOC(=O)c1cn(CC(=O)Nc2ccccc2C(=O)OCC)nn1	7%	>57
COc1ccc(S(=O)(=O)N2CCC(O)(c3ccc4c(c3)OCO4)CC2)cc1	-10%	>57
Cn1nnc2cc(NC(=O)N3CC4(C)CC3CC(C)(C)C4)ccc21 (stereo not given)	-7%	>57
O=C(NCc1cccs1)C1CCCN(S(=O)(=O)c2cccc3cccnc23)C1 (stereo not given)	?	>57
Cc1ccc(NC(=O)CSc2nnc([C@@H]3CCCN3C(=O)OC(C)(C)C)o2)c(C)c1	-16%	>57
COc1ccc(N2CCN(C(=O)c3cn(C)c(=O)c4c3c3ccccc3n4C)CC2)cc1	10%	>57
O=S(=O)(/C=C/c1ccccc1)n1cnc2ccccc21	-6%	>57
O=C1N(CCCCN2C(=O)C3(OCCO3)c3ccccc32)c2ccccc2C12OCCO2	-4%	>57
CC(C)NS(=O)(=O)c1ccc(OCC(=O)NCc2ccc3c(c2)OCO3)c(Cl)c1	3%	>57
O=C(O)CSc1nc2ccccc2[nH]1	-5%[8 µM]	>57
C=CCNc1nc(NCCN2CCOCC2)nc(N2CCOCC2)n1	-3%	>57
CCc1ccc2[nH]c(=O)c(CN(Cc3ccc4c(c3)OCO4)Cc3nnnn3C3CCCC3)cc2c1	?	>57
O=C(O)CCN1/C(=C/C=Nc2ccccc2)Oc2ccccc21	-11%	>57
CCOC(=O)N=S(N)(=O)c1ccccc1 (stereo not given)	11%	>57

Record cards (already shown):
O=C(CSc1nnnn1C1CCCC1)c1ccc2c(c1)OCCO2 as listed: LT uptake inh: 9%; SmPrx2 inh: >57
CCc1ccc2[nH]c(=O)c(CN(Cc3ccc4c(c3)OCO4)Cc3nnnn3C3CCCC3)cc2c1 as listed: LT uptake inh: ?; SmPrx2 inh: >57
C=CCNc1nc(NCCN2CCOCC2)nc(N2CCOCC2)n1 as listed: LT uptake inh: -3%; SmPrx2 inh: >57

Remaining list, next part
SMILES	LT uptake inh	SmPrx2 inh
c1csc(-c2nn3c(C4COc5ccccc5O4)nnc3s2)c1 (stereo not given)	-8%	>57
CCCC(=O)Nc1ccc2c(c1)nc(CN1CCCCC1)n2C	.	>57
COc1cccc(-c2cc(C(=O)NCCN3CCOCC3)no2)c1	-17%	.
COc1ccc(Br)cc1C(=O)Nc1nnn(C)n1	?	>57
CC1Cc2ccccc2N1C(=O)C1CCN(S(=O)(=O)Cc2ccccc2)CC1 (stereo not given)	2%	>57
CCc1nc(SCC(=O)NCCc2ccccc2)n[nH]1	-6%	>57
CCOC(=O)CSc1nc2sc(C(=O)O)c(C)c2c(=O)[nH]1	-3%	>57
CCCC(=O)NC(Nc1ccc(S(=O)(=O)Nc2ncccn2)cc1)(C(=O)OCC)C(F)(F)F (stereo not given)	3%	>57
CCc1nc(N2CCCCC2C)c2oc3ccccc3c2n1 (stereo not given)	?	>57
CC1CCN(S(=O)(=O)c2ccc(NC(=O)CN3CCN(c4ccccc4)CC3)cc2)CC1	-16%	>57
c1ccc(Cn2nnc3c(NCC4CCCO4)ncnc32)cc1 (stereo not given)	8%	>57
CCc1ccccc1N(CC(=O)N1CCN(c2ccccc2)CC1)S(C)(=O)=O	-11%	.
O=CNCC(=O)NCCc1ccc(Cl)cc1	-3%	>57
O=C(O)CC(CP(=O)(c1ccccc1)c1ccccc1)C(=O)O (stereo not given)	12%	>57
CCn1ncc2c1C(=O)NC1c3ccccc3C(=O)N21 (stereo not given)	-10%	>57
Cc1nn(CC(=O)O)c2ccccc12	3%	>57
COCCN(CCOC)S(=O)(=O)c1ccc(C(=O)Nc2nnc(C3CC3)o2)cc1	1%	>57
c1cc(-c2nnc(-c3ccncc3)o2)ccn1	0%	>57
CC(CCc1ccccc1)NC(=O)C1CCCN(c2nnc(-n3cccc3)s2)C1 (stereo not given)	-20%	>57
